Vif TR-FRET – inhibitors of Vif binding to APOBEC3G peptide, primary screen, biochemical, TR-FRET, GST-Vif 1-94, biotin-A3G peptide, dose response retest (AID 1117319) | TR-FRET GST-Vif / biotin-A3G peptide binding; higher % means a stronger effect; test concentration not given here; strong numbers were not always called active | one-dose inhibition, %; IC50 in µM for titrated hits | hit rate 0.57% among 260,000;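 active means above the screen mean plus three standard deviations and confirmed in dose response; inconclusive means results disagree or hit not tested in dose response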;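 further: Vif residues 1-94 fused to GST binding biotinylated APOBEC3G peptide 110-148; 0% = full assay without inhibitor and 100% = GST in place of GST-Vif; retest series ran down from 100 µM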
Beta2AR agonist – activates human beta-2 adrenergic receptor causing internalization | hit rate 0.43% among 340,000 | P07550 | response, % (no concentration beside the values) | Am2.2-beta2AR cells, FAP receptor internalization, flow cytometry; reference of the scale not given here | AID 504454;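 active means response above a set limit, near 3 SD of response in nonfluorescent compounds, cut at about 42% in these data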;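 further: stock transfer was 100 nL into about 11 µL; a reference agonist was the positive control; negative values mostly stem from fluorescent compounds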
Target sequence (P07550 whole entry, looked up): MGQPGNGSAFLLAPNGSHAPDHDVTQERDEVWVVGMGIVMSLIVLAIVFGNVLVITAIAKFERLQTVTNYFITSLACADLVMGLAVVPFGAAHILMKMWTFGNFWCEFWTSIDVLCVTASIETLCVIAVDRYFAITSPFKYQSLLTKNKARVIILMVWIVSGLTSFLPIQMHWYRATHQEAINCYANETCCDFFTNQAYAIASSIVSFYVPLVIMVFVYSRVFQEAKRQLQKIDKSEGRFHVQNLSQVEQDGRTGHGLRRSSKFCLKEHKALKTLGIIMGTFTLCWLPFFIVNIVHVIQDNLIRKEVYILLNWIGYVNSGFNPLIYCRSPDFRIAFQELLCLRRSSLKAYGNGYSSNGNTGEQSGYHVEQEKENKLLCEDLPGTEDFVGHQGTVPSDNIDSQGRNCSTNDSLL
LANA-H2B inh – blocks KSHV LANA binding to histone H2A/H2B | cell-free LANA-H2A/H2B peptide, fluorescence polarization | inhibition, % (test concentration not listed) | hit rate 0.6% among 320,000 | AID 2629; in the data active means inhibition mostly above about 10%, no sharp cut-off; inactive means mostly below about 6.7%;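 further: stock transfer was 7.5 nL into about 10 µL; 0% = median of vehicle wells and 100% = median of positive control wells; one replicate is shown; the record names a cut of 25% in any replicate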
Ecoli growth – blocks Escherichia coli growth. OD600, 23 h; hits give low values. OD600 absorbance (test concentration not listed). AID 1053175. hit rate 0.21% among 330,000;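 active means OD600 absorbance below the run mean of sample wells minus 3.6 SD, in any replicate, cut at about 0.56 in these data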;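 further: stock transfer was 300 nL into about 60 µL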
UCH37 DUB inh – human UCH37 deubiquitinating enzyme inhibition | purified proteasome/UCH37, Ub-AMC cleavage fluorescence | inhibition, % (no concentration beside the values) | hit rate 0.33% among 330,000 | AID 588478;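 active means mean of two replicates above 20%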;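 further: 0% = compound-free wells with enzyme and 100% = wells lacking proteasome; stock transfer was 100 nL into about 20 µL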
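Test system – human UCH37 enzyme supplied as purified proteasome complex · Incubation – 30 min preincubation with enzyme, 25 min cleavage at room temperature · Detection – AMC fluorescence from Ub-AMC cleavage, excitation 355 nm, emission 460 nm · Benchmarks – no-proteasome wells (full inhibition) and compound-free wells (no inhibition)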
Bfl-1 A1 inh – inhibitors of the anti-apoptotic protein A1, read as caspase activation; MEF A1-2A-BIM cells, Caspase-Glo 3/7 luminescence, 3 h; percent of clofoctol response, vehicle zero; caspase activation, % (no concentration beside the values); hit rate 0.066% among 330,000;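 active means over half of replicate activation scores above 10%, or exactly half above 10 with the replicate mean above 10; inconclusive means replicate mean below 10 yet half the replicates above 10; inactive means over half of replicates below 10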;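 further: wells of about 30 µL received 50 nL stock; many hits fall short of the cut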
HNF4A DNA FP – change in binding of human HNF4 alpha to DNA; AID 1224865; activity change, % at 10 µM; HNF4a-FITC DNA binding, fluorescence polarization, 1 h; P41235; hit rate 0.3% among 360,000; in the data active means activity change above about 30%, passing the limit was not always enough;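 further: controls were the assay level and a saturating level of protein; the project sought stronger binding though the title names inhibitors; some compounds called inactive have numbers as strong as hits; positive values seem to mean higher polarization but the record does not say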
Target sequence (P41235 whole entry, looked up): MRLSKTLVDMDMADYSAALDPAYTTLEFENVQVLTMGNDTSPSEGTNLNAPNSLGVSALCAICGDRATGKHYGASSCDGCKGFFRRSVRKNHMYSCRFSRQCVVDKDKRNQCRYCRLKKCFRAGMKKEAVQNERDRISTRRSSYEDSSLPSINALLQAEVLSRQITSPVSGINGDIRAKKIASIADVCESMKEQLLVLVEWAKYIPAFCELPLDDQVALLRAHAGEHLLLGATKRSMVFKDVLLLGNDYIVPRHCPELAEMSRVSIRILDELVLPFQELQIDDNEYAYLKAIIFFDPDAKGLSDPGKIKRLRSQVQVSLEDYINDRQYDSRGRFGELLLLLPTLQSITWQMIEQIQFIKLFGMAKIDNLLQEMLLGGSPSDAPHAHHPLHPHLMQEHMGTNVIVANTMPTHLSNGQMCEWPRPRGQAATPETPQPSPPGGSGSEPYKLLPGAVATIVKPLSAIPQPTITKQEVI
* marks the source's active call; other numbers are inactive results; i = inactive; ? = inconclusive; · = no result given; & = joins results of further samples.

SMILES | Vif TR-FRET | Beta2AR agonist | LANA-H2B inh | Ecoli growth | UCH37 DUB inh | Bfl-1 A1 inh | HNF4A DNA FP
Cc1cccc(N2CCN(CC(=O)N(C)Cc3ccccc3)CC2C)c1 (stereo not given) | -2% | -5 | 4.0 | 0.64 | 2.5 | 0.1 | -2.2
O=c1[nH]nc(Cc2ccc(-c3ccccc3Cl)o2)c2ccccc12 | -1% | -4 | 0.7 | 0.72 | -1.5 | -0.6 | 13
CCc1nn(C(CC)C(=O)NCC(C)c2ccccc2)c(=O)c2cc3occc3n12 (stereo not given) | · | 4 | · | 0.72 | 0.6 | · | 4.8
Cc1ccc(NC(=O)CCSCCC(=O)Nc2ccc(C)c(C)c2)cc1C | 10% | -2 | 0.7 | 0.7 | 0.3 | -0.9 | 1.9
CC(O)CNc1nc2ccccc2n1CC(=O)NCC(F)(F)F (stereo not given) | 1% | 0 | -3.0 | 0.71 | -0.2 | 1.3 | 3.8
Nc1c(C(=O)NC2CC2)sc2nc3c(c(-c4ccco4)c12)CC/C3=C/c1ccco1 | <0.2µM* | -64 | 2.4 | 0.67 | 5.9 | -0.5 | -42
CS(=O)(=O)Nc1ccc(-c2nnc3n2CCCCC3)cc1 | -2% | -4 | -1.4 | 0.68 | 0.2 | -1.4 | -3.4
COc1ccc(S(=O)(=O)N2CCC(C(=O)Nc3ccccc3N3CCCC3)CC2)cc1OC | 4% | 11 | 6.3 | 0.73 | 5.8 | 0.6 | 4.6
Cc1nc2ccccn2c1C(=O)N/N=C/c1ccc(CNC(=O)C(=O)Nc2ccccc2)o1 | · | 11 | 1.6 | · | · | 0.8 | -7.0
O=[N+]([O-])c1ccc(F)cc1OCc1cccc(S(=O)(=O)N2CCOCC2)c1 | 10% | 5 | -0.7 | 0.7 | 1.4 | 0.1 | 0.1
Cc1c(NC(=O)c2cc(S(=O)(=O)N3CCCCC3)ccc2Cl)c(=O)n(-c2ccccc2)n1C | -2% | 6 | -2.9 | 0.62 | 0.1 | -0.8 | 4.1
COc1cccc(NC(=O)NCCCSC2CCCCC2)c1 | 1% | -2 | -1.2 | 0.59 | 1.2 | 0.1 | -0.4
O=C(CSc1nnc2ccc(-c3ccncc3)nn12)Nc1ccc(F)cc1 | -12% | -4 | · | 0.72 | 4.1 | 0.2 | 1.7
Cc1cccc(Oc2ccccc2NC(=O)CN2C(=O)NC3(CCCC3)C2=O)c1 | -1% | -6 | 0.9 | 0.63 | -0.6 | 1.2 | -4.4
O=C(Nc1ccc2nc(-c3ccccn3)c(-c3ccccn3)nc2c1)N1CCOCC1 | 20% | 1 | -0.2 | 0.68 | -416 | 0.6 | 0.4
CN1CCN(NC(=O)c2cc(-c3ccc(Cl)s3)nc3ccccc23)CC1 | · | 13 | 3.1 | 0.66 | i | 0.2 | -2.3
COC(=O)C1CCN(C(c2ccc(OC)c(OC)c2)c2sc3nc(C)nn3c2O)CC1 (stereo not given) | -4% | -7 | -2.2 | 0.76 | 5.6 | -0.1 | 1.5
C/C=C/C(=O)OCC(=O)Nc1cccc(Br)c1 | 2% | -5 | 2.0 | 0.7 | 5.4 | 1.0 | 1.5
Cc1ccc(C(=O)CSc2cc(C)nc(SCC(=O)c3ccccc3)n2)cc1 | 15% | -11 | -4.0 | 0.77 | -2.3 | 0.0 | -0.7
CC(Oc1ccccc1)C(=O)Nc1ccc(S(=O)(=O)Nc2nccs2)cc1 (stereo not given) | · | 4 | -3.9 | 0.67 | 0.4 | 0.3 | -0.6
COc1ccc(/C=C/C(=O)c2ccc(NS(=O)(=O)c3ccc(C)cc3)cc2)cc1O | · | 8 | -0.6 | 0.69 | -5.6 | 0.7 | -0.6
O=C(NCc1ccccc1)c1ccc(S(=O)(=O)N2CCCc3ccccc32)cc1 | 1% | 10 | -2.7 | 0.65 | 0.8 | -0.1 | -1.8
CCC(=O)c1c[nH]c(C(=O)NCc2cccs2)c1 | 5% | -9 | -2.3 | 0.7 | -0.7 | -0.6 | -0.5
COc1ccc(NC(=O)CSc2ccc3nnc(-c4ccccn4)n3n2)cc1 | 0% | 3 | 0.0 | 0.7 | -1.5 | -0.1 | 5.8
CC(C)Cc1nc(N2CCN(C(=O)C(C)C)CC2)c(C#N)c2c1CCC2 | -1% | 7 | 3.4 | 0.71 | -54 | 0.2 | -0.4

Reformatted: two of the compounds above.
structure	Vif TR-FRET	Beta2AR agonist	LANA-H2B inh	Ecoli growth	UCH37 DUB inh	Bfl-1 A1 inh	HNF4A DNA FP
CS(=O)(=O)Nc1ccc(-c2nnc3n2CCCCC3)cc1	-2%	-4	-1.4	0.68	0.2	-1.4	-3.4
COc1ccc(S(=O)(=O)N2CCC(C(=O)Nc3ccccc3N3CCCC3)CC2)cc1OC	4%	11	6.3	0.73	5.8	0.6	4.6

Further entries follow.
SMILES | Vif TR-FRET | Beta2AR agonist | LANA-H2B inh | Ecoli growth | UCH37 DUB inh | Bfl-1 A1 inh | HNF4A DNA FP
Cc1sc2ncn(CC(=O)NCC(=O)N(C)C3CCCCC3)c(=O)c2c1C | -7% | -2 | 6.7 | 0.66 | 1.4 | 0.1 | -0.9
Oc1ccc(CN2CCN(c3ncccn3)CC2)cc1 | -8% | -6 | -1.1 | 0.71 | 4.0 | 0.1 | 2.0
CCOC(=O)CSc1ccc2nnc(-c3cccs3)n2n1 | 21% | 6 | 3.0 | 0.72 | 5.2 | 0.2 | 1.3
C#CCOCCOCCOCCNc1nc(N2CCN(C(=O)[C@H](CCCN=C(N)N)n3cc(C(N)[C@@H](C)CC)nn3)CC2)nc(N2CCN(C(=O)[C@H](CC(N)=O)n3cc([C@@H](N)CC(N)=O)nn3)CC2)n1 (stereo not given in full) | · | -1 | 7.8 | · | 0.0 | 0.0 | 12
CCN1CCN(C(=O)CN(C)S(=O)(=O)c2ccc(Cl)cc2)CC1 | -4% | -4 | 3.5 | 0.69 | 1.6 | -0.6 | 0.4
COc1ccccc1OCC(=O)N(Cc1nnc(-c2ccccc2Cl)o1)C1CC1 | -2% | -4 | 5.6 | 0.63 | 1.7 | -0.1 | -0.5
COc1ccc(CNC(=O)/C=C/C(=O)O)cc1 | ? | 0 | 2.2 | 0.67 | -0.8 | 0.6 | -4.3
COc1cc(/C=C/C(=O)OCC(=O)N2CCCc3ccccc32)ccc1O | -9% | 4 | 5.6 | 0.62 | -20 | -1.0 | -3.8
Cc1cc2cccc(C)c2nc1SCC(=O)N(C)c1nc(-c2ccccc2)cs1 | -2% | 1 | -1.2 | 0.73 | 0.8 | -1.9 | -0.3
CC(=O)c1cccc(NC(=O)COc2ccccc2)c1 | 0% | 8 | -3.8 | 0.66 | 1.5 | -0.5 | -2.0
CC(NC(=O)c1ccc(Br)s1)C1CCCO1 (stereo not given) | -2% | 3 | 1.9 | 0.74 | 2.6 | 0.5 | 3.2
CC(=O)Nc1ccc(NC2=CC(=O)c3ccccc3C2=O)cc1 | · | -12 | -4.4 | 0.68 | 7.7 | -6.7 | -2.5
CCCCN(CCCC)C(=O)c1cc2ccccc2c(=O)o1 | 6% | -12 | -2.2 | 0.69 | 1.9 | -0.1 | 0.1
CCC(C)c1ccc(O)c(NC(=O)c2cccnc2)c1 (stereo not given) | -1% | 4 | -0.7 | 0.71 | 2.1 | 0.3 | 1.6
CCCc1noc2c1C(c1ccoc1)C(C#N)=C(N)N2 (stereo not given) | ? | 13 | 8.8 | 0.72 | -1.1 | 0.3 | -0.1
CN(C)S(=O)(=O)c1cccc(NC(=O)C2Cc3ccccc3CN2C(=O)c2ccco2)c1 (stereo not given) | 7% | 9 | -4.5 | 0.67 | 3.5 | -0.9 | -0.5
Cc1nc(SCC(=O)NCc2ccc3c(c2)OCO3)c(C#N)c2c1CCCC2 | 8% | 16 | -2.1 | 0.76 | 0.3 | -2.8 | 1.9
O=C(O)C(C(=O)/C=C/c1ccco1)=C1SCCS1 | ? | 2 | -5.8 | 0.75 | -0.9 | -0.3 | -4.3
CCN(CC)c1nc2c(s1)C(=O)NCCC2 | -2% | -3 | -5.7 | 0.68 | 1.5 | -0.4 | 0.4
Cc1ccc(C(C)n2cc(C(=O)NCc3ccncc3)nn2)cc1 (stereo not given) | -8% | 1 | -0.6 | 0.73 | -0.9 | 1.0 | 2.6
COc1ccc(-n2c(SCC(=O)NCCCN3CCCC3=O)nnc2C(C)N2CCCCC2)cc1 (stereo not given) | 5% | 9 | 1.6 | 0.69 | 0.3 | -1.2 | -2.2
O=[N+]([O-])c1ccccc1/C=N/N1CCN(c2ccncc2S(=O)(=O)N2CCCCC2)CC1 | · | 5 | -3.9 | · | · | 1.2 | -3.2
COc1ccc(C(=O)N2CCN(c3ccccn3)CC2)cc1[N+](=O)[O-] | 0% | -6 | 0.6 | 0.72 | 6.1 | 0.4 | -0.8
COc1ccc(-n2c(SCC(=O)Nc3ccc(C(N)=O)cc3)nc3ccccc3c2=O)cc1OC | -6% | 3 | -6.6 | 0.62 | -1.8 | 0.0 | 3.4
Cc1cc(C)nc(/N=C(\N)Nc2ccc(C)c([N+](=O)[O-])c2)n1 | 32% | 0 | -0.9 | · | · | -0.1 | -5.7

Taken from above:
In Beta2AR agonist, `O=C(O)C(C(=O)/C=C/c1ccco1)=C1SCCS1` is entered as 2
In Ecoli growth, `CN(C)S(=O)(=O)c1cccc(NC(=O)C2Cc3ccccc3CN2C(=O)c2ccco2)c1` (stereo not given) is entered as 0.67
In Ecoli growth, `COc1cc(/C=C/C(=O)OCC(=O)N2CCCc3ccccc32)ccc1O` is entered as 0.62
In UCH37 DUB inh, `CCOC(=O)CSc1ccc2nnc(-c3cccs3)n2n1` is entered as 5.2
In UCH37 DUB inh, `COc1ccc(CNC(=O)/C=C/C(=O)O)cc1` is entered as -0.8

Carrying on:
SMILES | Vif TR-FRET | Beta2AR agonist | LANA-H2B inh | Ecoli growth | UCH37 DUB inh | Bfl-1 A1 inh | HNF4A DNA FP
O=C(OC(C(=O)NC1CCCC1)c1ccccc1F)c1ccco1 (stereo not given) | 0% | 1 | 1.1 | 0.67 | -0.3 | 0.6 | -1.7
CCCCNC(=O)Cc1coc2ccc3ccccc3c12 | -4% | -7 | -2.1 | 0.69 | -1.9 | -0.2 | 1.4
CCOc1ccc2[nH]c(=O)c(CN(Cc3ccco3)C(CC)c3nnnn3Cc3ccccc3)cc2c1 (stereo not given) | 12%&4% | 23 | 1.3 | · | · | -1.8 | -0.3
CN1CCN(c2ccccc2NC(=O)c2ccc(Br)o2)CC1 | 0% | 12 | -0.9 | 0.68 | 0.7 | -0.3 | 1.0
COc1ccc(NC(=O)CSc2nc(N)cc(=O)[nH]2)cc1S(=O)(=O)N1CCCCC1 | 11% | -9 | · | 0.63 | 1.7 | · | -0.4
CCc1nnc(NS(=O)(=O)c2ccc(NC(=S)NC(=O)c3cccs3)cc2)s1 | -6% | 7 | 1.5 | 0.65 | 2.5 | -0.4 | -2.6
COc1ccc(C(=O)Nc2ccc(N3CCCC3)cc2)cc1OC | · | 8 | -1.9 | · | · | -13 | 9.6
CCCC(=O)NC(=S)Nc1ccc(NC(=O)c2cccs2)cc1 | -4% | -11 | -1.5 | 0.7 | 6.0 | -1.3 | -0.6
COc1ccc(C2(c3ccc(OC)cc3)NC(=O)N(CC(=O)NCC(F)(F)F)C2=O)cc1 | · | 4 | 1.8 | 0.68 | 0.6 | -0.1 | -0.6
CC(C)(C)Cc1nnc(NC(=O)CCC2CCCCC2)s1 | 0% | 0 | -2.1 | 0.65 | -0.6 | 0.0 | -0.8
COCCN(C(=O)CSCC(=O)Nc1cccc(C)c1)c1c(N)n(Cc2ccccc2)c(=O)[nH]c1=O | -10% | -6 | 1.4 | 0.66 | 4.3 | 1.4 | 0.9
O=C(NNC(=O)NC1CCCCC1)NC1CCCCC1 | -4% | -4 | -1.7 | 0.64 | 3.0 | -0.6 | -1.0

Random draw from the library; 2.1% or so of the library scored in one or more.
